Rango release inh: inhibitors of RanGTP-induced Rango-importin beta complex dissociation; Potency, µM (doses to about 46.1 µM), without a hit: at the top dose activity change, negative = inhibition; Biochemical FRET Rango-importin beta, RanGTP-induced dissociation; AID 540253; actives 0.071% (n = 340,000); active means falling FRET ratio curve, often poorly fitted, with flat reads before Ran was added; inconclusive means other falling curves, or compound fluorescence or quenching; inactive means flat or rising ratio curve;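 note: potency is the fitted concentration of half-maximal effect; % of control where 0% means no effect; nearly all actives have a fitted effect of over 45% in size; -100% = wells without RanGTP and RCC1; the record marks most hits as doubtful in a second field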
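Recombinant Rango FRET biosensor (EYFP–snurportin 1 IBB–cerulean CFP10) at 0.1 uM premixed with 0.25 uM importin beta in PBS, 1 mM DTT, 0.02% Tween-20, 0.1% BSA. Compound added 5 min; RanGTP-RCC1 (0.6 uM Ran, 2 mM GTP, 0.2 uM RCC1) then triggers release, read at 45 min.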
miR-21 FLuc: raises the signal of a miR-21 reporter; HeLa miR-21 FLuc reporter, luciferase, 48 h; Potency, µM (top dose mostly 38.3 µM), for the others: at the top dose reporter change, positive = more light; 340,000 tested, under 10 active; AID 2288; active = well fitted rising curve with a large enough effect; inconclusive = small, poorly fitted or top-dose-only effect; inactive = no such curve, though single readings can be large or run the other way;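 note: % of control where 0% means no effect; miR-21 action dims this reporter so a rising signal means less miR-21 action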
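HeLa cells stably expressing CMV-driven firefly luciferase with a downstream miR-21 binding sequence, endogenously expressing miR-21, were treated with titrations (up to about 40uM final) for 48 hours at 37 degree Celsius. Luciferase luminescence was read after lysis.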
GLA inh pH 4.5: alpha-galactosidase A (human) inhibition, pH 4.5 | P06280 | purified enzyme, 4-MU-alpha-Gal fluorescence, pH 4.5 | activity change, negative = inhibition, % at 105 µM | 230,000 tested, under 10 active; inconclusive = small, poorly fitted or top-dose-only inhibition, or a rising curve; inactive = flat fitted curve, though single readings scatter; no compound was filed as active;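 note: 0% = full activity with enzyme and -100% = basal without enzyme; dose as in the result columns while the protocol names 77 µM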
Rango complex inh: inhibitors of Rango-importin beta complex formation. actives 0.031% (n = 340,000). Rango CFP/YFP FRET sensor + importin beta, 45 min. AID 540263. Q14974. Potency, µM (top dose mostly 92.2 µM), for inactives: at the highest dose inhibition of complex formation; active = rising FRET ratio curve, often small or poorly fitted; inconclusive = mostly compound fluorescence or quenching in the first reads; inactive = flat curves in all reads;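 note: potency is the fitted concentration of half-maximal effect; 0% = DMSO wells and 100% = buffer wells lacking importin beta; nearly all actives have a fitted effect of over 15% in size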
Target sequence (Q14974 whole entry, looked up): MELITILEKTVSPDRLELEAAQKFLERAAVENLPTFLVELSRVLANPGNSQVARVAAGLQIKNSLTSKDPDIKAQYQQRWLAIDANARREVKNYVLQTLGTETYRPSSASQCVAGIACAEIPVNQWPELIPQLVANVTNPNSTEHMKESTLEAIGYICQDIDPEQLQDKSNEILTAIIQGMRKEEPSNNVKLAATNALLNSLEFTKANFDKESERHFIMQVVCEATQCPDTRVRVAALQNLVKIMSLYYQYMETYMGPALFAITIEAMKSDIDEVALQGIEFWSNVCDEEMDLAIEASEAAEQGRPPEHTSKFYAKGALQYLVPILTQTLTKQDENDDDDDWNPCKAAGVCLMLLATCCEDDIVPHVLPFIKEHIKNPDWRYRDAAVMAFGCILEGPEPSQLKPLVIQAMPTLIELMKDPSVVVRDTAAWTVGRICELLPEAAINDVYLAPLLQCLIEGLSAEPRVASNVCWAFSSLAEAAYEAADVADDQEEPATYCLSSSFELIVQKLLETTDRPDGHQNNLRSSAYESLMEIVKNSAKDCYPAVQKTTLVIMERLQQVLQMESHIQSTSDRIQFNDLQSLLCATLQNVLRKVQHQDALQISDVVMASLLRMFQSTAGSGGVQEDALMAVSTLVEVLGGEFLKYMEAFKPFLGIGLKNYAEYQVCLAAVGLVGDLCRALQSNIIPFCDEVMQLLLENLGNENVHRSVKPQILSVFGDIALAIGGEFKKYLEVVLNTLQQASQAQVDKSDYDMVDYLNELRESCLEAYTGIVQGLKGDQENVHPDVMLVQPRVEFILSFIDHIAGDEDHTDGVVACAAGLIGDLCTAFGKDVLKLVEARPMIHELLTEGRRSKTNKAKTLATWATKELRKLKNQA
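Inhibition scored from the CFP 486 nm/YFP 530 nm FRET ratio 45 min after adding 0.125 microM importin beta to 50 nM Rango biosensor preincubated 5 min with compound (room temperature, PBS with DTT, Tween-20, BSA). No-importin wells as positive control.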
Starred values were filed as active, the others as inactive; ? = inconclusive; · = no result given; & = joins results of further samples. An excerpt; rates above refer to the full screens.

SMILES	Rango release inh	miR-21 FLuc	GLA inh pH 4.5	Rango complex inh
CC(C)c1ccc(CN(C(=O)c2ccco2)C2CCS(=O)(=O)C2)cc1 (stereo not given)	-1%	-5%	·	0.2%
COc1ccc(S(=O)(=O)N(NC2=NS(=O)(=O)c3ccccc32)C(=O)C(C)C)cc1	2%	1%	5	-0.2%
O=C(COC(=O)c1ccncc1)Nc1cccc(Cl)c1	?	1%	3	0.4%
O=C(CCCNS(=O)(=O)c1cccc2nsnc12)NCc1ccccc1	-16%	-7%	7	-0.3%
COc1cc(NC(=O)Cn2nnc(-c3ccccc3N)n2)cc(OC)c1	-9%	2%	7	5.1%
COC(=O)c1ccc(NC(=O)C2CC(=O)N(c3cc(C)ccc3C)C2)cc1 (stereo not given)	-16%	-11%	-1	-2.5%
CCn1c(C)cc(/C=C2\NC(=O)N(CC(=O)Nc3ccc(F)cc3)C2=O)c1C	-11%	-10%	2	-2.0%
CC1CCC(NC(=O)C2c3ccccc3C(=O)N2Cc2ccc3c(c2)OCO3)CC1 (stereo not given)	2%	-9%	-9	-3.2%
O=[N+]([O-])c1ccccc1NCc1ccc(Cl)cc1	-5%	-24%	-7	2.5%
CN(Cc1ccco1)S(=O)(=O)c1nnc(NC(=O)c2ccc(F)cc2)s1	?	-4%	·	-1.5%
COc1cccc(CN(C)C(=O)Cn2cc(C)c(=O)[nH]c2=O)c1	29%	·	·	0.7%
Cc1cc(NC(=O)CN2C(=O)NC(C)(c3ccccc3)C2=O)no1 (stereo not given)	-8%	-1%	-1	-2.6%
O=C(Nc1c2c(nn1-c1ccccc1)CS(=O)C2)c1ccc2c(c1)OCO2 (stereo not given)	-13%	1%	·	1.1%
COc1ccc(N(CC(=O)Nc2ccc(C)c(C)c2)S(=O)(=O)c2c(C)noc2C)cc1	1%	20%	·	1.3%
CN1C=CC=C/C1=C1\SC(=S)N(c2ccccc2)C1=O	-12%	-7%	-4	1.7%
CCOCCn1c(CCCO)nc2ccccc21	5%	-1%	3	1.1%
Cn1c(SCc2ccccc2Cl)nnc1-c1cnccn1	0%	-60%	8	-0.2%
Cc1cccc(NC(=S)Nc2cccc(C)n2)n1	-14%	-13%	-13	0.3%
CCOC(=O)c1c(NC(=O)c2nn(CC)cc2Br)c(C#N)nn1-c1ccccc1	1%	3%	-3	-1.8%
CC(C)(C)OC(=O)N1CCN(c2ccc(CNC(=O)c3ccc(Cl)cc3)cc2)CC1	6%	27%	-5	1.2%
O=C(CC1SC(=Nc2ccccc2)N(CCCO)C1=O)Nc1ccc(Cl)cc1 (stereo not given)	-12%	20%	-11	0.1%
C(=C\c1nc(-c2ccncc2)no1)/c1ccccc1	-2%	-1%	-10	-0.3%
CCOC(=O)C(CCCP(=O)(c1ccccc1)c1ccccc1)(NC(C)=O)C(=O)OCC	1%	-1%	1	2.4%
COc1cc(C2C(C(=O)c3ccco3)=C(O)C(=O)N2c2cc(C)on2)cc(Br)c1O (stereo not given)	-12%	-13%	-14	0.8%
COc1cc(CNCCc2ccc(S(N)(=O)=O)cc2)ccc1OCC(=O)NC(C)(C)C	12%	-3%	1	?
Cc1ccc(-c2nnc(NC(=O)c3ccco3)s2)cc1	-1%	-61%	·	-3.6%
O=S(=O)(/N=C(/Nc1cc(N2CCOCC2)ncn1)c1ccc(F)cc1)c1ccccc1	0%&2%	-5%	-1	-3.1%&7.3%
Cc1ccc(N(C)S(=O)(=O)c2cc3c(cc2C)NC(=O)CO3)cc1	?	7%	·	-0.7%
O=S(=O)(NCc1csc(-c2cccnc2)n1)c1ccc(Br)cc1	17%	-5%	·	-3.7%
CCN(C(=O)COC(=O)CCOc1cc(C)ccc1C)c1c(N)n(Cc2ccccc2)c(=O)[nH]c1=O	7%	·	·	10%
CC1(C)CC(=O)C/C(=N/NC(=O)c2ccc(-c3ccccc3)cc2)C1	-21%	-1%	-9	?
CC[C@@]1(c2ccccc2OC)ON(c2ccccc2C(F)(F)F)C1=O	1%	·	·	2.0%
O=C(CN1C(=O)NC2(CCCC2)C1=O)Nc1ccc(F)c(Cl)c1	2%	-2%	·	-3.5%
CCCCn1c(N)c(N(CCOC)C(=O)COC(=O)C(C)Oc2ccc(Cl)cc2)c(=O)[nH]c1=O (stereo not given)	7%	·	·	0.0%
CN(Cc1cn(C)nc1-c1ccccc1F)CC1CCN(Cc2ccccc2)CC1	-1%	-2%	-7	0.6%
Cc1csc(=O)n1CC(=O)Nc1ccc(Cl)cc1F	12%	·	·	1.2%
COC(=O)c1cc(C(=O)OC)n(Cc2ccc(Br)cc2)n1	-10%	-16%	3	-3.3%
Cn1c(=O)c2c(SCC(=O)N3CCOCC3)nc(C3CCCCC3)nc2n(C)c1=O	·	0%	-1	·
CCNC(=S)N1CCn2c(nc3ccccc32)C1	-2%	-11%	-2	-2.0%
COc1ccc(C2=CSC3=NCCN23)cc1F	3%	-1%	9	-3.7%
O=C(COc1ccc(S(=O)(=O)Nc2ccccc2)cc1)NCc1ccncc1	-8%	-3%	-6	-1.0%
Cc1nn(-c2cccc(Cl)c2)nc1C(=O)Nc1cccc(C(=O)NC2CC2)c1	-21%	·	·	-1.3%
Cc1ccc(S(=O)(=O)Cn2nnnc2C(C(C)C)N2CCC(C(N)=O)CC2)cc1 (stereo not given)	4%	4%	·	3.0%
COCCn1cnc2c1c(=O)n(CC(=O)c1ccc3c(c1)OCCO3)c(=O)n2Cc1ccccc1	-9%	-8%	0	-0.7%
COc1ccc(C)cc1NC(=O)CN(c1ccccc1F)S(C)(=O)=O	10%	-6%	-3	-0.2%
COC(=O)[C@]1(Cc2ccccc2)N[C@H](CN(C)C(=O)Nc2ccc(C)cc2)[C@@H]2C(=O)N(C)C(=O)[C@@H]21	23%	·	·	1.8%
COC(=O)c1ccc(N2C(=O)CC(N(C)Cc3ccccc3)C2=O)cc1 (stereo not given)	-4%	0%	-5	-1.5%
COc1ccccc1CN1CC(C(=O)NCc2c(F)ccc(C)c2F)CCC1=O (stereo not given)	34%	-57%	·	-0.5%
O=C(CC12CC3CC(CC(Br)(C3)C1)C2)NCc1ccccc1	2%	-2%	·	0.5%
Cc1cc(NC(=O)CSCC(=O)OCc2nnc(-c3ccc(F)cc3)o2)no1	2%	·	·	-1.5%
Cc1sc(NC(=O)c2ccco2)c(CN2CCCCC2)c1C	-1%	-18%	-16	-1.8%
O=C(NNC(=O)c1cc(O)c(O)c(O)c1)NC1CCCCC1	2%	1%	10	-0.9%
N#Cc1c(-c2cccs2)nc(SCC(=O)c2ccc(Br)cc2)[nH]c1=O	-10%	-2%	-3	?
CCCCn1c(CNC(C)=O)nc2ccccc21	-8%	-8%	7	-1.9%
Cc1ccc(-c2cc(N)n(Cc3ccc(Cl)cc3)n2)cc1	15%	4%	3	4.0%
Cc1ccc(N2CCN(S(=O)(=O)c3c(C)nc4scc(C)n4c3=O)CC2)c(C)c1	10%	1%	·	7.4%
O=C(O)c1ccc(-n2ncc3c2/C(=C/c2cccc([N+](=O)[O-])c2)CC3)cc1	3%	-23%	-13	-0.1%
Cc1c(NC(=O)N(C)c2ccccc2)c(=O)n(-c2ccccc2)n1C	-8%	-1%	·	-4.3%
Cc1ccc(/C=N\NC(=O)CNC(=O)C23CC4CC(CC(C4)C2)C3)o1	-6%	1%	·	0.8%
CC(=O)c1cc(C#N)c(N2CCCC2)nc1C	22%	-20%	-6	3.3%

The results go on.
SMILES	Rango release inh	miR-21 FLuc	GLA inh pH 4.5	Rango complex inh
Cc1nc2cc(NC(=O)N3CC4(C)CC3CC(C)(C)C4)ccc2n1C (stereo not given)	10%	-6%	5	4.6%
Cc1cc(S(=O)(=O)N2CCCC2)c(C)s1	-1%	-7%	-1	-3.0%
O=C(Nc1nnc(Cc2ccccc2)s1)C1CCC1	0%	-29%	·	0.8%
CCC(=O)NC1CC2CCCC(C1)N2Cc1ccc(C)cc1 (stereo not given)	-4%	0%	·	-1.1%
CNC(=O)CCn1nc(-c2ccc(Cl)cc2)c2ccccc2c1=O	9%	-7%	-3	-1.3%
CC(=O)c1cc(F)ccc1OCC(=O)N1CCN(c2ccc(F)cc2)CC1	-5%	8%	3	0.8%
CC(NC(=S)NC(=O)c1cccs1)c1ccccc1 (stereo not given)	15%	·	·	-1.2%
O=C(Cc1ccccc1)Nc1c(C(=O)N2CCOCC2)cnn1-c1ccccc1	8%	-7%	1	-0.9%
Cc1ccc(-c2nc(CSCC(=O)N3CCCC3)c(C)o2)cc1	11%	-6%	2	0.0%
Cc1cc(C)c(S(=O)(=O)NCC2CCC(C(=O)NCCCN3CCOCC3)CC2)c(C)c1 (stereo not given)	-2%	-10%	2	-2.6%
Clc1ccc(-c2nnc(-c3ccc(Br)o3)o2)c(Cl)c1	-11%	-38%	4	-4.1%
CCC(CC)NCC(O)COc1ccc(Br)cc1 (stereo not given)	-1%	4%	-5	1.3%
COc1ccc(-n2c(SCC(=O)N3CCOCC3)nc3ccccc3c2=O)cc1	-10%	-1%	·	-1.5%
CCOc1ccc(NC(=O)COc2ccc(S(=O)(=O)N3CCCC3)cc2)cc1	9%	5%	·	0.5%
Cc1cc(NC(=O)CSc2nnc(C)c(=O)n2N)no1	-6%	0%	-1	0.5%
Clc1ccc(CO/N=C2\CCCc3nonc32)c(Cl)c1	13%	-25%	-8	-0.6%
CCOc1cc(NC(=O)c2ccco2)c(OCC)cc1NC(=O)COc1ccccc1	6%	-13%	7	-0.4%
COc1ccc(/C=C2/N=C(c3cccs3)OC2=O)cc1OC(C)C	?	-3%	8	?
Cc1ccc(S(=O)(=O)N2CCCC2C(=O)Oc2ccccc2)cc1 (stereo not given)	-1%	-1%	-8	0.2%
Cc1ccc(Cn2c(=O)c3ccccc3n3nc(C)cc23)cc1	-10%	-3%	-6	-2.1%
Cc1ccc(C(C)C)c(OCCCNCc2cccnc2)c1	-5%	-6%	1	-1.0%
COCCNC(=O)/C(C#N)=C/c1c(N2CCN(c3ccccc3)CC2)nc2ccccn2c1=O	10%	-25%	·	0.9%
CCn1c(CNc2cccc(Cl)c2)nnc1SCc1ccccc1	-7%	3%	-2	-1.1%
COc1ccc(C(=O)NCc2ccc(Cl)c(Cl)c2)cc1OC	8%	-5%	5	-3.1%

Filtered by structure: those above with a cyano group (four)
SMILES	Rango release inh	miR-21 FLuc	GLA inh pH 4.5	Rango complex inh
CCOC(=O)c1c(NC(=O)c2nn(CC)cc2Br)c(C#N)nn1-c1ccccc1	1%	3%	-3	-1.8%
N#Cc1c(-c2cccs2)nc(SCC(=O)c2ccc(Br)cc2)[nH]c1=O	-10%	-2%	-3	?
CC(=O)c1cc(C#N)c(N2CCCC2)nc1C	22%	-20%	-6	3.3%
COCCNC(=O)/C(C#N)=C/c1c(N2CCN(c3ccccc3)CC2)nc2ccccn2c1=O	10%	-25%	·	0.9%

Other entries.
SMILES	Rango release inh	miR-21 FLuc	GLA inh pH 4.5	Rango complex inh
COc1ccccc1NC(=O)c1ccc[n+]([O-])c1	12%	0%	·	-2.4%
COc1ccc(CCNC(=O)C2CC(=O)N(CCc3ccc(C)cc3)C2)cc1OC (stereo not given)	-12%	1%	2	5.4%
Cc1[nH]c2ccccc2c1CC#N	12%	0%	-1	5.2%
Clc1ccc(-c2csc(-c3ccncc3)n2)cc1	-6%	-33%	0	-4.5%
Cc1cccc(C(=O)N[C@H](C(=O)Nc2ccc(C)c(S(=O)(=O)N3CCOCC3)c2)C(C)C)c1	1%	·	·	1.3%
O=C(NCc1ccccn1)C1CCCN(S(=O)(=O)c2ccc(Br)cc2)C1 (stereo not given)	30%	7%	6	7.6%
O=C(O)CCC(=O)c1cccc2ccccc12	4%	-8%	-6	-0.3%
Cc1cccc(NC(=O)CSCC(=O)Nc2cccc3ncccc23)c1	-16%	·	·	?
Cc1ccc(N(CC(=O)NC2CCC(C)CC2)S(=O)(=O)c2cccnc2)cc1 (stereo not given)	-27%	-2%	4	1.1%
COc1ccccc1N1CCN(/N=C/c2ccccc2C(=O)O)CC1	-28%	-28%	·	2.4%

Screening data: PubChem, National Center for Advancing Translational Sciences (NCATS)
